YjeE inh: YjeE (TsaE) inhibition, E. coli | P0AF67 | purified YjeE, fluorescence polarisation of a bound ADP probe | Potency, µM | actives 0.05% (n = 71,000) | AID 605; active = well fitted falling curve; inconclusive = weaker or top-dose-only fall, or a rising curve; inactive = flat or poorly fitted curve;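 note: top concentration of the series not given in the record; excess ADP was the control for the full effect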
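Purified YjeE (10 uM) with BODIPY Texas Red-labeled ADP probe (2 uM); compounds pin-transferred, 15 min at room temperature. Binding inhibition read as decreased fluorescence polarization; ADP titration as control.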
Bst PK mod: modulators of Bacillus stearothermophilus pyruvate kinase; partly purified Bacillus stearothermophilus pyruvate kinase, luminescence ATP production; ribose 5-phosphate activator present at AC10; Potency, µM; actives 1.2% (n = 51,000); in the data active means potency below about 11 µM; inconclusive means mostly about 12 µM to 25 µM; inactive means weaker than that;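 the screen sought inhibitors and activators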;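 note: potency is the fitted concentration of half-maximal effect; scaled between full activation by ribose 5 phosphate and full inhibition by luteolin; about four in five hits inhibit and the cells do not say which; series up to 57 µM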
Starred values were filed as active, the others as inactive; i = inactive; ? = inconclusive; nt = no result given.

no.	SMILES	Bst PK mod	YjeE inh
1	Cc1ccc(C2/C(=C(/O)c3ccc(OC(C)C)cc3)C(=O)C(=O)N2CCN2CCOCC2)cc1 (stereo not drawn)	>11	nt
2	Cc1ccc(SCc2nc(-c3ccccn3)no2)cc1	>57	i
3	CCC(C)[C@H](NC(=O)NCc1ccccc1Cl)C(=O)O (stereo partly drawn)	>57	i
4	O=C(CCC(=O)OCCCC(F)(F)C(F)(F)F)Nc1ccccc1	nt	i
5	Cc1cc(NS(=O)(=O)c2ccc(NC(=O)c3ccoc3C)cc2)nc(C)n1	>57	i
6	Cn1c(=O)c2c(nc(NCCCN3CCOCC3)n2Cc2ccc(Cl)c(Cl)c2)n(C)c1=O	>57	i
7	O=C(NCc1cccs1)C(Cc1ccccc1)n1cccc1 (stereo not drawn)	nt	i
8	Cc1nn(-c2ccccc2)c2nc(N)c(C#N)c(-c3ccc(F)cc3)c12	>57	i
9	CCOC(=O)C1CCN(CCC(=O)Nc2cccc(Cl)c2C)CC1	>57	i
10	Cn1c(C(=O)O)cc2cc(F)ccc21	>57	i
11	CCOC(=O)c1ccc(N2C(=O)CC(N3CCN(Cc4ccccc4)CC3)C2=O)cc1 (stereo not drawn)	nt	i
12	O=C(NCCCN1CCC(Cc2ccccc2)CC1)C1CCC(=O)N1C1CCCC1 (stereo not drawn)	nt	i
13	Oc1ccc(Cl)cc1Cc1cc(Cl)ccc1O	nt	i
14	Cc1ccc(N(CC(O)CN2CCCC2)S(=O)(=O)c2ccccc2)cc1 (stereo not drawn)	nt	i
15	O=C(CN1CCCc2ccccc21)NC(=O)NCc1ccco1	?	i
16	Cc1ccc(-c2nn3c(C)nnc3c3ccccc23)cc1S(=O)(=O)N1CCN(CCO)CC1	>57	i
17	CCSc1nnc(NC(=O)CSc2nc(CC)nc3c2c(=O)n(C)c(=O)n3C)s1	nt	i
18	Cc1ccc(-c2cc(-c3ccc(Cl)cc3)c(C#N)c(N)n2)o1	>57	i
19	Cc1cc(NC(=O)c2cn(C3CCCCC3)c(=O)c3c2c2ccccc2n3C)no1	nt	i
20	CCCOC(=O)Cc1c(O)c2ccccc2[nH]c1=O	>57	i
21	Cc1ccc(C)c(NC(=O)C2CC(=O)N(C(C)C)C2)c1 (stereo not drawn)	>57	i
22	COc1c(C)cccc1C(=O)Nc1ccc(N2CCN(S(C)(=O)=O)CC2)cc1	>57	i
23	CCOc1ccccc1NC(=O)CSc1nnnn1Cc1ccccc1	>57	i
24	CC(Sc1nc2c(c(=O)n(C)c(=O)n2C)n1Cc1cc2c(cc1Cl)OCO2)C(=O)O (stereo not drawn)	nt	i
25	CCOC(=O)CN1CC23C=CC(O2)C(C(=O)NCc2ccc(C)cc2)C3C1=O (stereo not drawn)	nt	i
26	N#CC1=C(N)SC(N)=C(C#N)C1CCC1CCCCC1	>57	i
27	CN(C)C=Nc1ncc2c3ccccc3n(Cc3ccccc3)c2c1C#N	>57	i
28	O=C(NCCCN1CCCC1=O)c1cccc(C(F)(F)F)c1	>57	i
29	CN(CC(=O)N1CCc2ccccc21)S(=O)(=O)c1cccs1	nt	i
30	CCOC(=O)CSc1nnc(Cc2cc(=O)[nH]c(=O)[nH]2)n1-c1cccc(OC)c1	>57	i
31	CCC(C)n1cnc2c(c1=O)c1nc3ccccc3nc1n2Cc1ccccc1OC (stereo not drawn)	>57	i
32	Cc1ccc2c(c1)N(Cc1ccccn1)C(=O)C(C)O2 (stereo not drawn)	>57	i
33	CCn1c(SCC(=O)NCc2cccs2)nnc1-c1cccs1	>57	i
34	Cc1nc2c(-c3ccc(F)cc3)c(C)nn2c(C)c1CCC(=O)NC(C)CCc1ccco1 (stereo not drawn)	nt	i
35	CCCN1C(=O)c2cc(C(=O)NC3CCCCCC3)ccc2C1O (stereo not drawn)	nt	i
36	Cn1c2ccccc2c(=O)n2c(=O)c3ccccc3cc12	nt	i
37	CC1(C)Cc2c(sc3nc(-c4cccs4)n(N)c(=O)c23)CO1	i	i
38	Cc1ccc(CNC(=O)c2cccc(-n3cnnn3)c2)cc1	>57	i
39	CC(C(=O)N1CCN(c2ccccc2)CC1)N1C(=O)C2CC=CCC2C1=O (stereo not drawn)	>57	i
40	COc1ccc2cc(CCNC(=O)C(C)(C)C)c(=O)[nH]c2c1	nt	i
41	COc1ccccc1NC(=O)N1CCN(c2ccc3nncn3n2)CC1	nt	i
42	CC(=O)c1c(C(C)=O)c(C)n(Cc2ccc3c(c2)OCO3)c1C	>57	i
43	CCN1C(=O)NC2C1N(S(C)(=O)=O)CCN2S(C)(=O)=O (stereo not drawn)	nt	i
44	COc1ccccc1NC(=O)CSc1ncnc2c1oc1ccccc12	>57	i
45	O=C(OCC(=O)N(C1CCCCC1)C1CCCCC1)c1cnccn1	>57	i
46	Cc1cc(C(=O)O)ccc1-n1c(C)ccc1C	>57	i
47	COc1cc2c(C(=O)NCc3ccc4c(c3)OCO4)cn(C)c(=O)c2cc1OC	>57	i
48	Cc1ccc(Cl)cc1N1CCN(C(c2ccc(C#N)cc2)c2nnnn2C2CCCC2)CC1 (stereo not drawn)	>57	i
49	O=C(COC(=O)c1cc(S(=O)(=O)N2CCOCC2)ccc1O)NCC1CCCO1 (stereo not drawn)	>57	i
50	CCOc1ccc(-c2[nH]nc3c2C(c2cccnc2)C(C#N)=C(N)O3)cc1 (stereo not drawn)	nt	i
51	N#Cc1nc(Cc2cccc3ccccc23)oc1NCCCn1ccnc1	?	i
52	CCC(=O)OCN1C(=O)C=CC1=O	nt	i
53	CCOC(=O)N1CCC(NC(=O)c2cc(C(=O)NCc3ccc(F)cc3)ccc2CO)CC1	>57	i
54	Cc1ccccc1CNc1ncnc2c1ncn2[C@@H]1O[C@@H](CO)[C@H](O)[C@@H]1O	nt	i
55	COc1ccccc1-n1nnnc1SCc1cc2c(cc1Br)OCO2	>57	i
56	OC(C#CCN1CCCC1)c1ccccc1 (stereo not drawn)	nt	i
57	CC(=O)c1ccc(N2CCN(C(=O)c3ccc(Br)cc3)CC2)c(F)c1	nt	i
58	O=C(Nc1nc2n(n1)C(c1ccccc1)C=C(c1ccccc1)N2)c1ccco1 (stereo not drawn)	>57	?
59	O=C(CN1C(=O)C2CC=C(Cl)CC2C1=O)Nc1ccc(C(=O)O)cc1 (stereo not drawn)	>57	i
60	Cc1ccc(C#N)c(SCc2cc3c(cc2Cl)OCO3)n1	>26	nt

Molecules listed so far containing a furan ring, fused or not:
no.	SMILES	Bst PK mod	YjeE inh
5	Cc1cc(NS(=O)(=O)c2ccc(NC(=O)c3ccoc3C)cc2)nc(C)n1	>57	i
15	O=C(CN1CCCc2ccccc21)NC(=O)NCc1ccco1	?	i
18	Cc1ccc(-c2cc(-c3ccc(Cl)cc3)c(C#N)c(N)n2)o1	>57	i
34	Cc1nc2c(-c3ccc(F)cc3)c(C)nn2c(C)c1CCC(=O)NC(C)CCc1ccco1 (stereo not drawn)	nt	i
44	COc1ccccc1NC(=O)CSc1ncnc2c1oc1ccccc12	>57	i
58	O=C(Nc1nc2n(n1)C(c1ccccc1)C=C(c1ccccc1)N2)c1ccco1 (stereo not drawn)	>57	?

(further entries)
no.	SMILES	Bst PK mod	YjeE inh
61	COc1ccccc1Cn1c(=O)c2ccccc2n2c(Sc3ncnc4sccc34)nnc12	>57	i
62	O=c1[nH]c(Cc2ccccc2)nc2c1oc1ccccc12	>57	i
63	Nc1ccccc1S(N)(=O)=O	nt	i
64	O=C(CC12CC3CC(CC(C3)C1)C2)N1CCCOC1	>57	i
65	O=C(CS(=O)(=O)Cc1ccccc1)N1CCN(c2cccc(C(F)(F)F)c2)CC1	>57	i
66	CNc1nc(C)c(C(=O)OCc2ccccc2)s1	nt	i
67	Oc1ccc2ccccc2c1/C=C\c1ccc2c(Br)cc(Br)c(O)c2n1	nt	i
68	COc1ccc(Cl)cc1N1C(=O)C2CCCN2C1c1ccccc1F (stereo not drawn)	nt	i
69	COc1c(F)c(F)c(C(=O)Nc2ccccc2N2CCN(C(C)=O)CC2)c(F)c1F	>57	i
70	CS(=O)(=O)N(CC(=O)NCCC1=CCCCC1)c1ccc2c(c1)OCO2	>57	i
71	O=C(O)CCN1C(=O)c2ccc(NC(=O)c3cccs3)cc2C1=O	>57	i
72	C=CCNc1ncnc2c1[nH]c1ccccc12	nt	i
73	O=C(CSc1ncn(-c2ccccc2)n1)NCc1ccccc1	>57	i
74	Cc1ccc(OCc2occc2C(=O)O)cc1	nt	i
75	CCOc1ccc(C2SCC(=O)N2c2c(C)n(C)n(-c3ccccc3)c2=O)cc1 (stereo not drawn)	nt	i
76	Cc1ccc(C(=O)c2ccc(CC(=O)O)n2C)cc1	nt	i
77	CCN(CC)C(=O)Oc1ccc(NC(C)=O)cc1	nt	i
78	O=C(Cn1cnc2c(nnn2Cc2ccc(F)cc2)c1=O)NCc1ccco1	>57	i
79	Cc1ccc(-n2ncc3c(N4CCN(c5ccc(F)cc5)CC4)ncnc32)c(C)c1	>57	i
80	N#CC1=C(SCC(=O)NC2CCCCC2)NC(=O)CC1c1ccco1 (stereo not drawn)	>57	i
81	c1ccc2c(Nc3ccncc3)nc(-c3ccc4c(c3)OCO4)nc2c1	nt	i
82	Cn1c(=O)[nH]c2cc(Cl)cnc21	>26	nt
83	Cc1ccc(Nc2nc(C3CC3)cs2)cc1	nt	i
84	O=C(C1CC1)N1CCN=C1SCc1cccc(F)c1	nt	i
85	Oc1c(C(c2ccccc2)N2CCN(Cc3ccccc3)CC2)sc2ncnn12 (stereo not drawn)	nt	i
86	CN=C(NC#N)SCC(=O)c1ccc(Cl)cc1Cl	>57	i
87	Cc1ccc2nc(/C(C#N)=N/O)[nH]c2c1	nt	i
88	Cc1cc(C)nc(N2CCN(c3nc(C)nc4c3oc3ccccc34)CC2)n1	>57	i
89	CC(C)C(=O)c1c(C(C)C)nn2ccccc12	nt	i
90	COc1cccc(-c2nc(CS(=O)(=O)CC(=O)N3CCN(C)CC3)c(C)o2)c1	nt	i
91	O=C(O)C(=Cc1ccc(-c2ccccc2)cc1)C(=O)O	nt	i
92	CCCc1nnc(NC(=O)Nc2ccccc2OC)s1	>26	nt
93	NCCNC(=O)c1ccc(Cl)cc1	nt	i
94	CCc1c(O)nc(SCC(=O)N2CCCCC2)n(-c2ccccc2C)c1=O	nt	i
95	O=C(CSCC(=O)N1CCCCC1)OCC(=O)c1c[nH]c2ccccc12	nt	i
96	COc1ncc2ncc(=O)n(C)c2n1	nt	i
97	CC(=O)c1ccc(N2CCN(C(=O)C3CCN(S(=O)(=O)Cc4ccccc4)CC3)CC2)cc1	>57	i
98	CCCc1[nH]nc2c1C1(C(=O)N(C(C)C)c3ccccc31)C(C#N)=C(N)O2 (stereo not drawn)	>57	i
99	N#CCCSCc1ccc2oc(C(=O)O)cc2c1	>57	i
100	C/C(=C\[C@@H](NP(=O)(c1ccccc1)c1ccccc1)c1ccccc1)CO[Si](c1ccccc1)(c1ccccc1)C(C)(C)C	nt	i
101	COCCn1c(SCc2nnc(-c3ccccc3)o2)nc2sc3c(c2c1=O)CCC3	>57	i
102	CCCCCC(=O)N1CCN(CCN=CC2=C(O)CC(c3ccc(OC)cc3)CC2=O)CC1 (stereo not drawn)	>57	i
103	Cn1c(NCCCO)nc2c1c(=O)n(Cc1ccccc1F)c(=O)n2C	>26	nt
104	CN(Cc1ccccc1)Cc1nc2c([nH]1)c(=O)n(C)c(=O)n2C	>57	i
105	N#Cc1c(N)nc2c(c1N)CC(=O)N2c1ccccc1-c1ccccc1	>57	i
106	c1ccc(Cn2c(-c3cccs3)nc3nc4ccccc4nc32)cc1	>57	i
107	O=C(CN1CCC(O)(c2ccc3c(c2)OCO3)CC1)N1CCOCC1	>57	i
108	Cc1ccc(C2CC(c3cccc(Br)c3)n3nc(N)nc3N2)cc1 (stereo not drawn)	nt	i
109	COC(=O)[C@@]1(Cc2ccccc2)[C@H]2c3cc(C(=O)N(C)C)n(Cc4ccc(O)c(OC)c4)c3C[C@H]2CN1C(=O)c1ccccc1	nt	i
110	Cc1cc(NC(=O)c2cncc(Br)c2)n(-c2ccccn2)n1	>57	i
111	Nc1nnc(N2CCc3ccccc32)s1	nt	i
112	COc1cc(NS(=O)(=O)c2ccc(NC(=O)COc3ccccc3Cl)cc2)nc(OC)n1	>57	i
113	Cc1cc(C(=O)OCC(=O)Nc2cc(C(F)(F)F)ccc2N2CCOCC2)c(C)o1	>57	i
114	Cc1cc(C)c(S(=O)(=O)N(C)CC(=O)N2CCCCC2)c(C)c1	>57	i
115	FC(F)(F)c1ccc(-n2ccnc2)nc1	>57	i
116	CC1Cc2nc(SCC(=O)N3CCc4ccccc43)n(C)c(=O)c2S1 (stereo not drawn)	>57	i
117	Cn1c(=O)cc(OCCCC(=O)NCc2ccco2)c2ccccc21	>57	i
118	CCCCOC(=O)C1[C@H]2C(=O)N(Cc3cccs3)C[C@]23C=C[C@H]1O3 (stereo partly drawn)	>57	i
119	CCC(C)C(NC(=O)C1CCC(C)CC1)C(=O)NC(C(=O)OC)C(C)C (stereo not drawn)	>57	i
120	Cn1c(=O)c2c(nc(NCCCN3CCOCC3)n2Cc2cccc(Cl)c2)n(C)c1=O	>57	i
121	O=C(O)CCC(=O)N1CCc2cc(S(=O)(=O)N3CC=C(c4ccccc4)CC3)ccc21	nt	i
122	Cc1cccc(N(CC(=O)NC2CCCC2)C(=O)CCCC(=O)Nc2ccccn2)c1	>57	i
123	COC(=O)[C@@H]1C[C@H]1[C@@H](NC(C)=O)c1ccccc1	nt	i

Compound activity from PubChem.

Some of the compounds tested; the hit share may differ from the screen's.
